Compound activity as filed in PubChem BioAssay.
PINK1 modulator = modulators of PINK1 expression. Potency, µM (highest dose often 76.6 µM), inactives show at the top dose activation (PINK1 increase), most hits filed as activators. PINK1 immunofluorescence, high-content cytometry, 24 h. AID 624263. 410,000 compounds, 0.2% hits; active = well fitted activation curve with a large enough effect; inconclusive = small, poorly fitted or top-dose-only effect; inactive = flat fitted curve, though single readings scatter; cell line not stated here;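 note: potency is the fitted concentration of half-maximal effect; % of control where 0% means no effect; nearly all actives have a fitted effect of over 65% in size; a mitochondrial uncoupler was the plate control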
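Readout is PINK1 immunofluorescence, quantified alongside mitochondrial, cell and nuclear markers by laser-scanning microplate cytometry. Cells from a stable line were exposed to compound titrations (5 concentrations) for 24 hours, with CCCP controls.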
Six1-Eya2 inh = inhibitors of human Six1/Eya2 interaction; 360,000 compounds, 0.56% hits; AID 651725; AlphaScreen GST-Six1/His-Eya2 binding, biochemical; stronger effect = lower value; control for the full effect not named in the record; activity change, % (test concentration not listed); in the data active = activity change below about -65%; inconclusive = about -30% to -65%; inactive = above about -30%; note: % is set by controls: 0 for no effect and ±100 for the full control effect
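GST-Six1 + His-Eya2 (5X stock: 250/500 nM); Tris pH 8.0, 300 mM NaCl, 0.05% BSA, 0.02% Tween 20; GSH donor/Ni acceptor beads; 1 h 37 °C dark; AlphaScreen readout.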
D2 agonist = activates the human D2 dopamine receptor; AID 624465; 360,000 compounds, 0.084% hits; DiscoveRx PathHunter D2 beta-arrestin, luminescence, 90 min; 100% = 57 uM dopamine signal; P14416; activation, % (concentration not given with the values); in the data active = activation above about 40%; inconclusive = about 15% to 40%; inactive = below about 15%; note: the text of the record calls up to 30% inactive
Target sequence (P14416 whole entry, looked up): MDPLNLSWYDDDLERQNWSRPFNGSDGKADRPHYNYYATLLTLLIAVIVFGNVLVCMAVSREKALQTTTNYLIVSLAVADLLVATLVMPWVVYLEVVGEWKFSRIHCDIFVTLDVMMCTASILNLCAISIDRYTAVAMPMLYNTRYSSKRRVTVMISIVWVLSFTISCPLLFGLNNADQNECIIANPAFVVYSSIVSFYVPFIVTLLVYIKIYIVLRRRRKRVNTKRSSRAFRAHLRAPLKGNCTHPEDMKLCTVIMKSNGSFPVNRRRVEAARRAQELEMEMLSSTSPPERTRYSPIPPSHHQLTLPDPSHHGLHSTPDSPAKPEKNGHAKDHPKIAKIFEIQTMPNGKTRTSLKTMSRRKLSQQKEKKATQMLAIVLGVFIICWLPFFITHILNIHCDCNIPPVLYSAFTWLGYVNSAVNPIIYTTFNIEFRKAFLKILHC
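Agonist mode: compounds alone added to overnight-plated D2 PathHunter cells for 90 min at 37 C, with 57 uM final dopamine (EC100) defining full response. Beta-arrestin recruitment detected by chemiluminescent reagent, read after 1 h at ambient temperature.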
TRPML1 ag = activates the human TRPML1 channel; AID 624414; 410,000 compounds, 0.12% hits; TRPML1-expressing cells, Ca2+ dye fluorescence, FDSS; host cell line not named in the record; reference of the full effect not given here; Q9GZU1; activation, % (concentration not given with the values); in the data active = activation above about 50%; inconclusive = about 30% to 50%; inactive = below about 30%; note: 0% is about no effect; the text of the record puts the active cut at 80%
Target sequence (Q9GZU1 whole entry, looked up): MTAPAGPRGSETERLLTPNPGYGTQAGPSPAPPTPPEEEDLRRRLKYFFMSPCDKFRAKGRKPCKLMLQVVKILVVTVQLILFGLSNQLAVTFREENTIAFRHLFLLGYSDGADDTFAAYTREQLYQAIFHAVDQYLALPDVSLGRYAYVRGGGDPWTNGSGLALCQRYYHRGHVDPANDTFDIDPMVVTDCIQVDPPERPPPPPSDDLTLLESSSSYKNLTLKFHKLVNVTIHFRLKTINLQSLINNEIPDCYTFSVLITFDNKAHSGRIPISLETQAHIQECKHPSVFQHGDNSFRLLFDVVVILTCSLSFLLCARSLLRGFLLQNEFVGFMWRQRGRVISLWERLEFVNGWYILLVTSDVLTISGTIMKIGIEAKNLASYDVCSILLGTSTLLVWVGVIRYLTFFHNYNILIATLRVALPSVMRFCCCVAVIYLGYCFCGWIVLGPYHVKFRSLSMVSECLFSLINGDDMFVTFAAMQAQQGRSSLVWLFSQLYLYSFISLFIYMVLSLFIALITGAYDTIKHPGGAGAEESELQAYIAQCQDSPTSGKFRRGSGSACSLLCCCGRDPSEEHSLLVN
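Kinetic FDSS Ca2+ read in Tet-induced TRPML1-DL cells (ABD Ca8 dye plus quencher, 45-90 min RT loading): baseline, then compound, then 110 s agonist window; EC80 agonist 54-4 at 4uM final added afterwards for a 110 s antagonist window.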
TRPML1 blocker = human mucolipin-1 channel inhibition; TRPML1-inducible cells, Ca2+ dye fluorescence, FDSS; stronger effect = lower value; inhibition of EC80 agonist-evoked calcium signal; activity change, negative = inhibition, % (test concentration not listed); 390,000 compounds, 0.02% hits; in the data active means activity change below about -50%; inconclusive means about -30% to -50%; inactive means above about -30%;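 note: stimulus is agonist 54-4 at its EC80 concentration; % is set by controls: 0 for no effect and ±100 for the full control effect; compound concentration not given in the record; the text of the record puts the active cut at -80%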
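TRPML1-DL cells, Tet-induced overnight (~16 h, 37 °C) at 1,500 cells/well, were loaded with Ca8 no-wash dye plus quencher for 45-90 min at room temperature. Compounds were pinned during FDSS kinetic reading; agonist 54-4 at EC80 (4 uM final) then added.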
CtBP-E1A blk = CtBP/E1A binding inhibition; 340,000 compounds, 0.49% hits; activity change, % (no concentration beside the values); AID 651724; AlphaScreen GST-E1A/His-CtBP binding, 1536-well; stronger effect = lower value; control for the full effect not named in the record; in the data active means activity change below about -65%; inconclusive means about -30% to -65%; inactive means above about -30%; note: % is set by controls: 0 for no effect and ±100 for the full control effect
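GST-E1A and His-tagged CtBP (125 nM each as 5X stock) were preincubated with pin-transferred compound for 2 h at 37 °C in the dark, then glutathione donor and nickel acceptor beads were added for 1 h before AlphaScreen reading.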
Numbers without * were called inactive; ? = inconclusive; / = no result given; [ ] = dose if it differs, or a comment.

SMILES	PINK1 modulator	Six1-Eya2 inh	D2 agonist	TRPML1 ag	TRPML1 blocker	CtBP-E1A blk
COCCn1cnnc1SCC(=O)Nc1cc(C)on1	-1.3%	5	-2.6	-0.3	4	7
CCOc1cc(/C=N/NC(=O)Cc2ccc(C(F)(F)F)cc2[N+](=O)[O-])c(Br)cc1OC	3.3%	3	-0.7	0.3	-5	3
CCn1c(CNC(=O)c2ccccc2F)cc2ccccc21	3.9%	7	7.7	0.0	7	12
Cc1nc(Cl)c(C(=O)NCCc2ccccc2)c(C)c1[N+](=O)[O-]	0.0%	0	-2.7	/	/	-1
CCCn1c(Nc2ccccc2C)nc2ccccc21	3.3%	6	-0.4	1.8	-6	5
CCN1C(=O)[C@H]2[C@@H](c3ccc(C)cc3)N3C(=O)N(c4ccc(OC)cc4)C(=O)[C@@]3(Cc3ccc(Cl)cc3)[C@H]2C1=O	1.9%	-4	-0.1	-0.4	-2	-14
COC(=O)N1CCCCC1c1cc(C(=O)Nc2ccc(OC)cc2C)no1 (configuration not stated)	1.3%	2	-2.0	-0.6	/	-5
CCc1ccc(NC(=O)C2CC(=O)Nc3ncnn32)cc1 (configuration not stated)	0.0%	26	-0.7	-0.4	-21	5
COc1ccc(OC)c(NC(=O)Cn2c(=O)cc(C)c3c(C)nn(-c4cccc(Cl)c4C)c32)c1	0.5%	/	/	1.0	7	/
CCC[C@@H](CN[C@@H](CNC)[C@H](C)CC)NCC1CCC(C(C)(C)C)CC1 (some centres not stated)	-1.1%	4	1.2	0.2	32	-7
CCc1ccc(OCCOCC(O)CNC(C)CC)cc1 (configuration not stated)	-1.1%	-1	0.5	1.2	-6	-2
CCNC(=O)c1ccc(-n2c(-c3ccccc3)cc3c2CCCCC3)cc1	1.1%	/	/	1.5	6	/
Cc1cc(-c2ccc(Cl)cc2)n2nc(C)cc2n1	-0.8%	17	-0.8	2.0	-7	25
C/C(CC(=O)Nc1ccc(Cl)cc1)=N\NC(=O)C(=O)N1CCCCC1	0.8%	-2	-0.2	-0.8	2	5
NC(c1ccccc1)c1csc(Nc2ccc(C(=O)NCCO)cc2)n1 (configuration not stated)	0.5%	-7	-5.7	-0.3	/	-21
CCOC(=O)c1ccc(NCn2c(=O)oc3ccccc32)cc1	5.4%[38.3 µM]	3	1.6	6.7	-9	-8
CCc1ccccc1NC(=O)c1cc(C)no1	-0.4%	2	5.2	/	/	2
COc1ccc(S(=O)(=O)Nc2ccccn2)cc1	0.7%	5	0.7	-0.3	14	10
Cc1cccc2c(C(=O)N3CCN(C(=O)c4ccco4)CC3)cc(-c3cccc(Br)c3)nc12	1.1%	-7	2.2	2.3	-17	-3
O=C(Cn1cc2c(n1)CCCC2)NCCCN1CCN(c2ccccc2F)CC1	3.0%	2	-0.7	1.8	0	3
NC(=O)CC(NC(=O)Cc1ccc(Br)cc1)c1ccc(NC2CCN(Cc3ccccc3)CC2)c([N+](=O)[O-])c1 (configuration not stated)	1.4%	-10	-1.7	-1.2	-17	-2
O=C(c1cn(-c2ccccc2)nc1-c1ccc(F)cc1)N1CCCCC1	-0.5%	2	2.1	1.0	-23	-4
CCOc1ccc(CN(C(=O)c2oc3ccccc3c2C)C2CCS(=O)(=O)C2)cc1 (configuration not stated)	2.0%[38.3 µM]	-5	-3.7	1.6	17	-3
CCn1cc(C(=O)N[C@H](C(=O)NCCCOC)C(C)C)c(=O)c2cc3c(cc21)OCO3	-1.0%	8	-0.1	0.0	35	/
CC(=O)Nc1ccc(NC(=O)c2ccccc2N(C)S(=O)(=O)c2ccccc2)cc1	0.7%	5	-1.7	-0.4	-3	3
CN(C)c1ccc(C=Cc2nccc3ccccc23)cc1	?	18	12	13	/	37
COc1ccc(Nc2cc3n(c(=O)n2)CCc2cc(OC)c(OC)cc2-3)c(C)c1	-0.7%	?	-2.2	0.0	-9	/
CC1=C(C)CC(C(=O)NCc2c(F)cccc2Cl)C(C(=O)O)C1 (configuration not stated)	-0.4%	4	-3.3	-1.0	-8	7
O=C(Nc1cccc(S(=O)(=O)Nc2ccccc2F)c1)c1ccco1	1.0%	-7	-3.2	0.8	6	-5
COc1ccc(/C=N/n2cnnc2SCCO)cc1OC	-2.5%	-1	-3.6	-0.4	-9	0
CC(=O)N1CCN(Cc2nc3cc(NC(=O)C4CCCCC4)ccc3n2C)CC1	?	-1	-4.0	-0.6	5	1
Cc1coc2c1c(C)cc1oc(=O)c(CC(=O)NCC(=O)O)c(C)c12	-0.4%	-14	2.2	0.7	10	-28
CCn1c(-c2nn(-c3ccc(C)cc3)ccc2=O)n[nH]c1=S	-3.0%	0	4.0	0.5	-11	/
CCOc1ccc(-c2cc(C(=O)NCCCOC)c3c(-c4ccc(CC)cc4)[nH]nc3n2)cc1	5.4%	/	/	-0.4	-4	/
C/C(=C\c1ccccc1)CN1CCC(C(=O)N2CCC(C)CC2)CC1	-2.0%	3	-1.4	-0.9	-13	-4
O=C(Nc1sc2c(c1C(=O)O)CCCC2)c1ccccc1Cl	-0.7%	-5	2.0	0.4	15	-4
COc1ccc(Br)cc1C(=O)Nc1cccc(C)c1	2.6%	5	0.6	-0.7	12	11
Cc1ccc(-c2nnn(CC(=O)N(c3cnc4ccccc4c3)C(C(=O)NC3CCCC3)c3ccncc3)n2)o1 (configuration not stated)	1.6%	0	1.5	2.3	0	/
O=c1c2ccccc2ncn1CCOc1ccccc1[N+](=O)[O-]	0.2%	-8	0.0	1.7	-7	/
CCOc1ccc(-n2c(SCC)nc3c(c2=O)SCC3)cc1	-0.6%	2	-3.1	1.0	4	-2
Cc1cc2cc(C)c(SCC(=O)NCc3ccco3)nc2cc1C	-0.1%	0	-0.4	-1.2	3	2
COc1cccc(N2CCN(C(=O)C3CCCN(S(=O)(=O)c4cccc5nsnc45)C3)CC2)c1 (configuration not stated)	2.7%	/	/	-0.8	13	/
C=CCC(c1ccccc1)N(C(C)=O)c1ccco1 (configuration not stated)	-2.2%	6	-1.3	1.8	10	-17
CCOc1ccccc1C=NNC(=O)c1cccc2ccccc12	22%	4	1.6	0.6	1	3
COc1ccc(OCc2n[nH]c(=S)n2Cc2ccco2)cc1	-1.1%	5	-9.0	0.9	41	-5
COc1ncnc2c1ncn2CCCN(CCCc1ccccc1)CCCn1cnc2c(OC)ncnc21	0.9%	0	-10	-0.8	21	-1
CN(C)c1ccc(C(CNS(=O)(=O)c2ccc(Br)cc2)N2CCCC2)cc1 (configuration not stated)	0.0%	/	/	-0.3	26	/
O=c1cnnc(N/N=C/c2ccccn2)[nH]1	0.3%	-92*	8.1	/	/	-97*
N/C(=C/C(=O)c1ccccc1O)C(F)(F)F	-0.2%	-5	-1.4	-0.1	11	16
CCOC(=O)c1ccc(CNC(=O)Cn2nnc(-c3ccc(C)cc3)n2)o1	2.0%	11	-4.2	1.2	9	6
COc1ccc(C/C(C)=N/NC(=O)C2COc3ccccc3O2)cc1 (configuration not stated)	6.7%	?	-0.2	0.2	22	2
COc1ccc(/C=C2\SC(=O)N(CCn3cnnn3)C2=O)cc1	-0.1%	-10	-1.2	-0.7	5	1
CCC(O)C1CCN(Cc2cn(-c3ccc(OC)cc3)nc2-c2cccc(F)c2)CC1 (configuration not stated)	3.2%	0	-7.7	2.0	4	-4
COC(=O)c1ccc(OCC(O)Cn2nnc3ccccc32)cc1 (configuration not stated)	-0.5%	-5	-2.9	-0.9	-2	22
COc1ccc(-c2cc3nc(C4CCN(C(=O)OC(C)(C)C)CC4)c(C(=O)Nc4cc(C)cc(C)c4)cn3n2)cc1	3.4%	/	/	0.7	9	/
Cc1ccc(CN(C)C(=O)C2CCC(=O)N(C3CCCCCC3)C2)cc1 (configuration not stated)	-0.7%	-1	1.1	-0.3	6	5
C=CCn1nc2ccccc2c1OCCO	-0.5%	-3	-2.4	-0.6	-6	5
O=C(C1CCC(Cn2c(=O)c3sccc3n(Cc3ccc(F)cc3)c2=O)CC1)N1CCOCC1 (configuration not stated)	0.5%	/	/	-0.4	-1	/
COc1cc(OC)c(NS(=O)(=O)c2c(C(=O)N3CCCCCC3)c(C)n(C)c2C)cc1Cl	-0.7%	/	/	0.3	-5	/
O=C(Nc1ccc2cn[nH]c2c1)c1ccccc1F	0.2%	-12	0.0	-0.8	-5	-8
The results go on:
SMILES	PINK1 modulator	Six1-Eya2 inh	D2 agonist	TRPML1 ag	TRPML1 blocker	CtBP-E1A blk
CCCSc1cc(Cl)nc(N)n1	2.5%	0	0.2	1.1	-15	9
C=C1CCN([C@@H](Cc2ccccc2)C(=O)NCc2ccccc2)S(=O)(=O)c2ccccc21	-0.3%	1	-0.7	1.0	14	0
CN(CC(=O)N1CCN(c2cccc(Cl)c2)CC1)S(=O)(=O)c1cnc[nH]1	7.2%	7	-1.1	0.4	23	-3
COc1ccc(C)cc1S(=O)(=O)Nc1cccc(Cl)c1	2.1%	9	1.8	-0.4	25	3
COc1ccc(NC(=O)CN(C)C(=O)c2ccc(N3CCCCC3)c([N+](=O)[O-])c2)cc1	-0.4%	-8	-4.0	-0.5	1	-10
O=C(c1cccc(S(=O)(=O)Nc2cccc(C(F)(F)F)c2)c1)N1CCCCC1	-0.2%	4	-1.3	-0.3	3	/
CCOC(=O)c1ccc(NC(=O)c2noc3c2CCCC3)cc1	19%	/	/	0.9	26	/
CCOc1ccc(CNCc2c(C(=O)O)c(C)n(Cc3c(F)cccc3Cl)c2C)cc1OC	0.1%	/	/	-0.8	9	/
Cc1ccccc1CNC(=O)c1cnc2sc(N3CCOCC3)nn2c1=O	0.3%	/	/	1.1	11	/

Among those listed so far, 9 have a furan ring, fused or not:
SMILES	PINK1 modulator	Six1-Eya2 inh	D2 agonist	TRPML1 ag	TRPML1 blocker	CtBP-E1A blk
Cc1cccc2c(C(=O)N3CCN(C(=O)c4ccco4)CC3)cc(-c3cccc(Br)c3)nc12	1.1%	-7	2.2	2.3	-17	-3
CCOc1ccc(CN(C(=O)c2oc3ccccc3c2C)C2CCS(=O)(=O)C2)cc1 (configuration not stated)	2.0%[38.3 µM]	-5	-3.7	1.6	17	-3
O=C(Nc1cccc(S(=O)(=O)Nc2ccccc2F)c1)c1ccco1	1.0%	-7	-3.2	0.8	6	-5
Cc1coc2c1c(C)cc1oc(=O)c(CC(=O)NCC(=O)O)c(C)c12	-0.4%	-14	2.2	0.7	10	-28
Cc1ccc(-c2nnn(CC(=O)N(c3cnc4ccccc4c3)C(C(=O)NC3CCCC3)c3ccncc3)n2)o1 (configuration not stated)	1.6%	0	1.5	2.3	0	/
Cc1cc2cc(C)c(SCC(=O)NCc3ccco3)nc2cc1C	-0.1%	0	-0.4	-1.2	3	2
C=CCC(c1ccccc1)N(C(C)=O)c1ccco1 (configuration not stated)	-2.2%	6	-1.3	1.8	10	-17
COc1ccc(OCc2n[nH]c(=S)n2Cc2ccco2)cc1	-1.1%	5	-9.0	0.9	41	-5
CCOC(=O)c1ccc(CNC(=O)Cn2nnc(-c3ccc(C)cc3)n2)o1	2.0%	11	-4.2	1.2	9	6
